PKD1 inh: inhibitors of human PKD1 kinase, biochemical, fluorescence polarization | hit rate 0.056% among 200,000 | AID 797, 2007 | PKD1 kinase fluorescence polarization assay | Serine/threonine-protein kinase D1 (Homo sapiens), Q15139 | inhibition, %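 (about 10 µM by stock and volumes)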;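 active means inhibition of 50% or more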;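 further: controls were vehicle for no effect and a reference inhibitor for full effect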
Insulin prom inh: inhibitors of insulin promoter-driven GFP, primary screen, imaging, TRM-6 cells (human fetal islet line), eGFP reporter, cell count. reporter expression induced with tamoxifen. inhibition, % at 2 µM. hit rate 0.9% among 130,000;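 active means inhibition above the mean plus 3 SD, with well images judged a real hit on visual review, cut at about 60% in these data, passing the limit was not always enough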
HSV augment: enhancers of HSV replication in host cells, fold increase, host cell viability; hit rate 0.005% among 220,000; maximum fold increase; HSV replication augmentation in cells;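 active means peak rise of 1.5-fold or more in the series; tested in PC3 cells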;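 further: first round at 10 µM; read as green reporter fluorescence; hits show the peak of a series up to 25 µM; 1 = signal of infected wells without compound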
RGS16-Gao: modulators of RGS16 binding to Galphao, primary screen, biochemical, human proteins, multiplexed bead flow cytometry | bead-based flow cytometry RGS16-Galphao binding, fluorescence; actives lie on both sides | binding response (% of control), % at 10 µM | hit rate 0.38% among 220,000;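 active means below 25% or above 175%, edge rows of some plates excepted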;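 further: Galphao activated by GDP with aluminum fluoride before binding; 100% = wells without compound and 0% = beads without RGS; some results beyond the cut were filed as inactive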
Target sequence (O15492 whole entry, looked up): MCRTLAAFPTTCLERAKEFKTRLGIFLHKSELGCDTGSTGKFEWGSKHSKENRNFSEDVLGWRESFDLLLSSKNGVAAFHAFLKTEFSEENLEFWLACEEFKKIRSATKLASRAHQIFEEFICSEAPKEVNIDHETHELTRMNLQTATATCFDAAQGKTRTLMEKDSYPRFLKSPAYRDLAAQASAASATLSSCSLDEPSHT
Target sequence (P09471 whole entry, looked up): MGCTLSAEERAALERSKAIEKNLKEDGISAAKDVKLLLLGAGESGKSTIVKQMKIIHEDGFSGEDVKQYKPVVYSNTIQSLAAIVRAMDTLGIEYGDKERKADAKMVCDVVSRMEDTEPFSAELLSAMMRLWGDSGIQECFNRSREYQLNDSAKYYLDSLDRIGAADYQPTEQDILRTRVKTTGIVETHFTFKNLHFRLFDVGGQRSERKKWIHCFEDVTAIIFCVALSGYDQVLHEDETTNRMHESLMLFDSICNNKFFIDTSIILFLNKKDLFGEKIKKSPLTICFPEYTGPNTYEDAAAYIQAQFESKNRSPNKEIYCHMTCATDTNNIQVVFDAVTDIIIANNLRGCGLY
GALR2 agonist: GALR2 receptor agonists, primary screen, cell-based. Galanin receptor type 2 (Homo sapiens), O43603. GALR2-expressing cells, agonist activation read-out. activation, %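 (tested at 5 µM)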. hit rate 0.48% among 140,000;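 active means above mean plus 3 SD of all compounds, about 5% in these data, not always enough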;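 further: 0% = vehicle buffer wells and 100% = reference agonist at full effect; tested in CHO reporter cells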
Target sequence (O43603 whole entry, looked up): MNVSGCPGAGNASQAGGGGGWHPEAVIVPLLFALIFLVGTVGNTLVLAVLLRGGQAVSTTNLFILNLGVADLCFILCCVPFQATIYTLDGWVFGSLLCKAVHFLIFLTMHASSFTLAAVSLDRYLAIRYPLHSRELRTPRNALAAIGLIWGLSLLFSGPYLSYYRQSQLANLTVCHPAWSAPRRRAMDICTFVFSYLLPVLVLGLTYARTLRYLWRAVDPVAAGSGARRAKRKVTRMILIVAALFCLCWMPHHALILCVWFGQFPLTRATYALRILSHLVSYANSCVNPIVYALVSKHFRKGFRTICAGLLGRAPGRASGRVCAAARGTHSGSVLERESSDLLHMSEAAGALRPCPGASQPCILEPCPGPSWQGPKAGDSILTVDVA
Insulin prom inh cell count: second read-out of Insulin prom inh, no call of its own (marks repeat the call); normalized cell count, %; measured here: cell count, toxicity; reference of the scale not given here;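 cells exposed to compound for 48 h; stained nuclei by imaging scaled within each plate; lower means fewer cells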
HSV augment primary fold: further read-out of HSV augment, marked with its call; fold increase; compound at 10 µM; measured here: primary screen fold increase 10 uM; tested in PC3 cells;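 GFP signal in the first replicate; 1 = infected wells without compound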
An asterisk follows results filed as active; i = inactive; . = not tested or not shown.

SMILES	PKD1 inh	Insulin prom inh	Insulin prom inh cell count	HSV augment	HSV augment primary fold	RGS16-Gao	GALR2 agonist
CC(=O)NC1CCN(CC(=O)Nc2cccc([N+](=O)[O-])c2)CC1	9	.	.	i	0.92	101	.
CCC(C)(C)NC(=O)c1ccc2c(c1)OCCO2	-6	.	.	i	1	101	.
CCN(CC)S(=O)(=O)c1ccc(NC(=O)[C@@H](NC(=O)c2cc(OC)cc(OC)c2)C(C)C)cc1	-6	.	.	i	0.97	89	.
O=c1/c(=C/c2ccc(O)c([N+](=O)[O-])c2)sc2nc3ccccc3n12	5	-79	46	i	0.98	110	.
COc1ccc(OC)c(NC(=O)COC(=O)c2c3c(nc4ccccc24)CCCC3)c1	5	30	113	i	0.63	57	-1.8
Cc1cccc(C)c1OCCn1nc(C(=O)O)c2ccccc2c1=O	-1	7	123	i	0.89	99	-1.4
Cc1cccc(OCC(=O)Nc2ccc(C(=O)NCc3cccnc3)cc2)c1	-12	7	129	.	.	99	-1.9
COc1ccc(S(=O)(=O)n2ccc(C(C)Oc3ccc(-c4ccccc4)c(F)c3)n2)cc1 (stereo not given)	8	-21	119	i	0.9	110	-2.1
O=C(c1ccc2c(c1)OCCO2)C1CCN(C(=O)c2ccc(F)cc2)CC1	-15	-154	133	i	0.92	172	-3.5
O=C(NCCSCc1ccco1)Nc1cc(Cl)cc(Cl)c1	.	.	.	i	1.1	90	.
O=C(/C=C/c1ccc(Cl)cc1)NC1CC2CCC1C2 (stereo not given)	-1	24	166	i	1	101	.
CC(Oc1ccccc1)C(=O)Nc1cccc(-c2nc3ccccc3[nH]2)c1 (stereo not given)	6	21	144	i	0.98	95	-4.2
COc1ccc(C2C3=C(CC(C)(C)CC3=O)N(CCN3CCOCC3)C3=C2C(=O)CC(C)(C)C3)cc1	.	.	.	i	0.97	102	.
CCN(CC)CCN1C(=O)C(O)=C(C(C)=O)C1c1ccccc1[N+](=O)[O-] (stereo not given)	.	.	.	i	1	100	.
CC(C)[C@H](NS(=O)(=O)c1ccccc1)C(=O)OCC(=O)Nc1ccc2c(c1)OCO2	-22	-22	104	i	0.83	107	-0.5
CC(C)c1ccccc1NC(=S)NCc1ccncc1	-2	.	.	i	0.99	102	.
O=C(NC1CS(=O)(=O)CC1NCc1ccccc1)c1ccccc1 (stereo not given)	9	-69	122	i	1	103	-3.0
CN(Cc1ccccc1)C(=O)c1cc2ccccc2o1	3	-40	137	i	0.86	113	-0.2
Cc1c(CCC(=O)O)c(=O)oc2cc(O)ccc12	-8	.	.	i	0.91	105	-0.5
CCc1c(C)nc(SCC(=O)N2CCCCC2C)[nH]c1=O (stereo not given)	2	.	.	i	1.1	101	.

Entries above that have a COOH group:
SMILES	PKD1 inh	Insulin prom inh	Insulin prom inh cell count	HSV augment	HSV augment primary fold	RGS16-Gao	GALR2 agonist
Cc1cccc(C)c1OCCn1nc(C(=O)O)c2ccccc2c1=O	-1	7	123	i	0.89	99	-1.4
Cc1c(CCC(=O)O)c(=O)oc2cc(O)ccc12	-8	.	.	i	0.91	105	-0.5

4 entries picked at random from the list so far:
SMILES	PKD1 inh	Insulin prom inh	Insulin prom inh cell count	HSV augment	HSV augment primary fold	RGS16-Gao	GALR2 agonist
CC(C)c1ccccc1NC(=S)NCc1ccncc1	-2	.	.	i	0.99	102	.
COc1ccc(S(=O)(=O)n2ccc(C(C)Oc3ccc(-c4ccccc4)c(F)c3)n2)cc1 (stereo not given)	8	-21	119	i	0.9	110	-2.1
Cc1c(CCC(=O)O)c(=O)oc2cc(O)ccc12	-8	.	.	i	0.91	105	-0.5
CC(C)[C@H](NS(=O)(=O)c1ccccc1)C(=O)OCC(=O)Nc1ccc2c(c1)OCO2	-22	-22	104	i	0.83	107	-0.5

(listing goes on)
SMILES	PKD1 inh	Insulin prom inh	Insulin prom inh cell count	HSV augment	HSV augment primary fold	RGS16-Gao	GALR2 agonist
Cc1ccc(C)c(SCC(=O)NC(=O)NCc2ccccc2)c1	-4	21	183	i	0.97	104	-0.6
Cc1ccc(C2(O)C(=O)c3ccccc3C2=O)c(O)c1C	.	.	.	i	0.93	97	.
Cc1c(C(=O)NN)nc2ccccn12	-1	.	.	i	0.96	101	0.4
c1cnc(SCCCOc2ccc3ccccc3c2)nc1	-7	-471	83	.	.	100	0.8
COCCNC(=O)C(C)OC(=O)C1=Cc2ccccc2OC1 (stereo not given)	-4	.	.	i	1	106	.
Cc1nc(NCCCn2ccnc2)c2oc3ccccc3c2n1	-15	48	139	i	1	103	-1.2
O=C(NCCN1CCN(S(=O)(=O)c2ccc([N+](=O)[O-])cc2)CC1)C(=O)Nc1ccccc1	-5	.	.	i	0.91	87	.
O=C(CC1Nc2ccccc2NC1=O)NC1CCCCC1 (stereo not given)	-2	.	.	.	.	109	0.1
CC(=O)Nc1ccc(Nc2ncnc3c2cnn3-c2ccccc2)cc1	4	45	113	i	0.85	97	-0.4
CCOC(=O)C(=NC(C)(C)C)NNc1cc(Cl)ccc1Cl	-4	27	127	i	0.98	106	0.0
CC(O)c1nc2ccccc2n1CCCOc1ccccc1 (stereo not given)	.	.	.	i	1	104	.
O=C(Nc1ccc(F)cc1F)c1ccco1	3	-403	84	i	1	93	-1.0
O=C(N/N=C/c1cccc([N+](=O)[O-])c1)C1CC1c1ccccc1 (stereo not given)	8	15	104	i	0.83	103	0.1
Cc1ccc(-n2c(C)cc(=O)cc2C)c(C)c1	-3	.	.	i	0.89	103	-0.9
Cc1ccc(Cn2c(=O)oc3ccccc32)cc1	3	14	168	i	0.96	107	.
COC(=O)C1CCN(Cc2ccc(C)cc2)CC1	-16	-57	113	i	0.99	100	-2.3
C/C(=N/NC(=O)CNC(=O)c1cccnc1)c1ccc([N+](=O)[O-])cc1	0	0	73	i	1.1	62	.
COc1ccc(NC(=O)CC(c2ccccc2)c2ccco2)cc1 (stereo not given)	-6	.	.	i	0.9	103	.
CCN(CC)C(=O)CC(c1ccccc1)c1ccco1 (stereo not given)	-6	-68	79	i	1.2	99	-1.7
COc1ccc(/C=N/NC(=O)c2ccc(Br)cc2)cc1Cn1cc(Cl)cn1	-8	-33	112	i	0.66	98	0.6
COc1ccc(NC(=O)CSc2nc(C)cs2)c(OC)c1	-2	14	96	i	1.1	101	.
C#CCn1cc(/C=N/NC(=O)COc2cccc3cccnc23)c2ccccc21	3	-55	99	i	1	107	-1.4
CN(c1cccc(NC(=O)c2ccccc2N(C)S(C)(=O)=O)c1)S(C)(=O)=O	-1	-31	157	i	0.89	108	-0.6
COc1ccc(C2CC(c3cccc(OC)c3)n3nc(N)nc3N2)cc1 (stereo not given)	-5	.	.	i	1	91	-1.9
FC(F)(F)c1ccccc1-n1c(CN2CCCCC2)n[nH]c1=S	.	.	.	i	1	103	.
CCCN1C(=O)N(c2cccc(C)c2)C(C)(O)CC1(C)C (stereo not given)	.	.	.	i	1	96	.
O=C(CN1CCSC1=NCc1ccccc1)c1ccc(Cl)c(Cl)c1	-1	.	.	i	1.1	103	0.0
Cn1c(=O)c2c(nc(NC3CCCCC3)n2CC(=O)C23CC4CC(CC(C4)C2)C3)n(C)c1=O	-4	9	79	i	0.98	93	-0.8
Cc1ccc(NC(=O)C(OC(=O)c2ccc(F)cc2)c2ccccc2)cc1Cl (stereo not given)	-14	.	.	.	.	98	-1.3
Cc1cccc(/C=N\NC(=O)c2ccc(Cl)cc2)c1O	0	7	60	i	0.91	104	.
COc1ccccc1N1CCN(C2CCN(C3CCC(c4ccccc4)CC3)CC2)CC1 (stereo not given)	-3	.	.	i	0.94	98	.
Cc1cc(/C=C2/NC(=O)NC2=O)c(C)n1-c1ccccn1	3	-50	100	i	0.94	103	-0.9
O=C(C[n+]1cc(-c2ccc(F)cc2)n2c1CCC2)Nc1nc(-c2ccccc2)cs1	-2	7	125	i	0.99	101	-0.4
CN1CCN(c2ccc(NC(=O)Cc3ccccc3)cc2)CC1	-3	-289	66	i	0.94	106	-2.3
COc1ccc2c(c1)c(C(=O)N/N=C/c1ccccc1Cl)c(C)n2C	.	.	.	i	1.1	99	.
CCn1nc(NC(=O)Cc2ccc(OC)cc2)c2cc3cc(C)ccc3nc21	.	.	.	i	0.92	108	.
CCCCCCCN=C(C)c1ccccc1O	.	.	.	i	1.1	103	.
O=C(Nc1ccccc1F)NC1CCCc2ccccc21 (stereo not given)	.	.	.	i	1	95	.
CC(=O)c1ccc2c(c1)Nc1ccccc1S2	6	.	.	i	0.96	103	-2.2
CCOC(=O)c1c(C)oc2ccc(OC(=O)c3cccs3)cc12	-3	-7	110	i	0.9	104	-1.5
COc1ccc(OC)c2c(=O)cc(C(=O)O)[nH]c12	.	.	.	i	1	99	.
CC(C)COC(=O)c1nnsc1NC(=O)Nc1ccccc1	-3	33	99	i	0.74	101	-2.1
COc1ccc2cc(CCN3C(=O)c4ccccc4C3=O)c(=O)[nH]c2c1	1	25	107	.	.	97	-1.2
CC(C)Oc1ccc(C(=O)Nc2ccc(Cl)c(S(=O)(=O)Nc3ccc(Cl)cc3)c2)cc1	11	7	137	i	0.98	98	0.2
COc1cc(NC2c3ncccc3C(=O)N2Cc2ccco2)cc(OC)c1 (stereo not given)	-3	.	.	i	0.84	96	-0.9
CC(=O)N(C(C)=O)c1cccc2c(N(C(C)=O)C(C)=O)cccc12	-14	-5	40	i	0.87	103	-1.2
CC(=O)NC1=NN(C(C)=O)C(C)(c2cccnc2)S1 (stereo not given)	-1	25	69	i	0.94	100	.
Clc1cccc(Cl)c1NC1=NCCC1	-5	25	99	i	1.1	100	-1.7
CNc1nn(-c2cccc(Cl)c2)nc1N	5	.	.	i	0.93	101	-2.1
Cc1ccc(C(=O)Nc2cc(C(F)(F)F)ccc2N2CCCCC2)cc1[N+](=O)[O-]	5	-11	105	i	1.1	104	-1.4
Clc1ccc(C2=NCCN2)cc1	-2	.	.	i	0.9	105	.
CCOC(=O)Cn1c(=O)oc2cc(S(=O)(=O)N3CCC(N4CCCCC4)CC3)ccc21	7	.	.	i	0.46	108	-4.2
O=C(NC(N1CCCC1)C(Cl)(Cl)Cl)c1ccccc1 (stereo not given)	-2	.	.	i	0.94	102	-3.1
Cc1cccc(NC(=O)c2cnc3sccn3c2=O)n1	-9	.	.	i	0.95	.	0.2
O=C1c2ccccc2C(=O)N1CNc1ccccc1	1	8	88	i	1.1	96	0.4
Cc1ccc(NC2=NCC(=O)N2Cc2ccc3c(c2)OCO3)c(C)c1	-8	-19	84	i	0.84	104	-0.2
CCN(CC)CCN(C(=O)CCOc1ccccc1)c1nc2c(F)cc(F)cc2s1	-4	.	.	i	0.91	106	.
CC(OC(=O)c1nn(C(C)C)c(=O)c2ccccc12)C(=O)Nc1ncc(Cl)cc1Cl (stereo not given)	8	31	78	i	0.97	81	-0.1
O=C(Cc1ccc(Cl)cc1)NNc1c(F)c(F)cc(F)c1F	6	.	.	i	1.1	65	0.5
COc1ccc(N(C2=NCCCS2)S(=O)(=O)c2ccc(C(C)(C)C)cc2)cc1	0	.	.	i	1	104	.

The final 3 entries of the section above are carried over, then new ones follow.
SMILES	PKD1 inh	Insulin prom inh	Insulin prom inh cell count	HSV augment	HSV augment primary fold	RGS16-Gao	GALR2 agonist
CC(OC(=O)c1nn(C(C)C)c(=O)c2ccccc12)C(=O)Nc1ncc(Cl)cc1Cl (stereo not given)	8	31	78	i	0.97	81	-0.1
O=C(Cc1ccc(Cl)cc1)NNc1c(F)c(F)cc(F)c1F	6	.	.	i	1.1	65	0.5
COc1ccc(N(C2=NCCCS2)S(=O)(=O)c2ccc(C(C)(C)C)cc2)cc1	0	.	.	i	1	104	.
COc1ccc2c(c1)C1NC(=S)NC(C)(O2)C1C(=O)Nc1ccc(Cl)cc1 (stereo not given)	-1	-40	108	i	0.89	99	-1.4
CCCCCc1c(C)nc(N2CCc3ccccc32)[nH]c1=O	-3	22	112	i	0.96	101	0.4
COc1ccccc1NS(=O)(=O)c1cccc(N=C2N=C(N)c3ccccc32)c1	8	.	.	i	0.97	110	-0.7
Cc1cc(C)n(-c2nc(-c3ccc(Cl)cc3)cs2)n1	1	.	.	i	1	100	-1.6
Cc1sc(NC(=S)NC(=O)c2cccs2)nc1-c1ccc(CC(C)C)cc1	2	9	38	i	1.2	104	-2.8
COc1cccc(CNC(=O)CSCc2cnn(-c3ccccc3)c2-n2cccc2)c1	-12	-20	89	i	1.2	90	-3.8
COc1cc(CN(C)CC(=O)c2[nH]c(C)c(C(C)=O)c2C)ccc1OC(F)F	0	16	94	i	1.1	108	-2.5
CC(=O)Nc1ccc(S(=O)(=O)NCCOc2ccc(Cl)cc2C)cc1	-8	.	.	i	1.1	97	.
Cc1nc(SCc2cccc(F)c2)c2oc3ccccc3c2n1	.	.	.	i	0.94	102	.

Assay outcomes: PubChem BioAssay, several laboratories

Random draw from the library. Share with any hit: about 1.3%.
